# Source: PubChem
# Arbovirus anti: antivirals against arbovirus infection, primary screen, cell-based, full library, 10K replicate subset; arbovirus infection cell-based antiviral screen; inhibition, % at 10 µM; actives 0.37% (n = 200,000);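 active means inhibition from about 30%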;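 further: bluetongue infection of BSR cells; cell survival read as ATP light after 72 h; 0% = infected wells without compound and 100% = uninfected wells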
# YopH PTP inh: YopH tyrosine phosphatase inhibitors, primary screen, biochemical, fluorescence Ex485/Em525; YopH tyrosine phosphatase [Yersinia enterocolitica]; actives 0.16% (n = 140,000); inhibition, %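 (about 10 µM by stock and volumes)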;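 active means inhibition of 50% or more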;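 further: controls were vehicle for no effect and minimum signal wells for full effect; inactives centre near -20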
# RecA intein inh: Mtb RecA intein splicing inhibitors, primary screen, biochemical, fluorescence, HTS; Protein RecA (Mycobacterium tuberculosis (strain ATCC 25618 / H37Rv)), P9WHJ3; cell-free RecA intein splicing; inhibition, %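 (about 9 µM by stock and volumes)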; actives 0.75% (n = 290,000); AID 2221, 2009; in the data active means inhibition above about 30%; inconclusive means no clear call, values can overlap the other calls;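 further: 0% = vehicle wells and 100% = reference inhibitor control wells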
# Target sequence (P9WHJ3 whole entry, looked up): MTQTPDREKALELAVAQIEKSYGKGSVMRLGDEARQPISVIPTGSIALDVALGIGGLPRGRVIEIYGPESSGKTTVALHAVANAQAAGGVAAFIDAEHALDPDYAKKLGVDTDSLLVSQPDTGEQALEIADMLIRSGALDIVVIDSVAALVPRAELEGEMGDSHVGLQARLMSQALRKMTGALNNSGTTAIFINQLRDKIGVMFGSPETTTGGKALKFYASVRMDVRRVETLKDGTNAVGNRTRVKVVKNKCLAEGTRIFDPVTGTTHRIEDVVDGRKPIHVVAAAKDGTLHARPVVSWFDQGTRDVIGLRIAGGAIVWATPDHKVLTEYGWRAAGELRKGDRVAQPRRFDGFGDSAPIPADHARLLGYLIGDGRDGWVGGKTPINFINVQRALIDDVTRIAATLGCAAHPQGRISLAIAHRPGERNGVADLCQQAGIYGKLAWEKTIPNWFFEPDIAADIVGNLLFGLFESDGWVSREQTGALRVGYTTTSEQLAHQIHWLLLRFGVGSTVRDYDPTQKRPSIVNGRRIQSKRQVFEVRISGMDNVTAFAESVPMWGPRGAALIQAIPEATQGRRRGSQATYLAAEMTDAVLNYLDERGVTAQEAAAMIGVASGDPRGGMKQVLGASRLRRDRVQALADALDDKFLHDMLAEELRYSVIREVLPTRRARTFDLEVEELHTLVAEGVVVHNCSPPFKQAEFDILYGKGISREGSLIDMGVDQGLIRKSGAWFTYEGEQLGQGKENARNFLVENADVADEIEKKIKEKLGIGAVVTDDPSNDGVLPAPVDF
# Mtb H37Rv: M. tuberculosis H37Rv growth inhibitors, H37Rv strain (AID 1626) | M. tuberculosis H37Rv growth inhibition; higher % means a stronger effect | one-dose inhibition, % at 10 µM; IC50 in µM for titrated hits | actives 0.95% (n = 220,000);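 active means confirmed in a dose series; inconclusive means inhibition above 80% but not taken into the dose series; inactive means below 80% or under 30% at every dose of the series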;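 further: bacteria incubated seven days before Alamar blue readout; 0% = bacteria only wells and 100% = bacteria with antibiotic wells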
# Mtb betalactam: beta-lactam sensitization of Mtb H37Rv, H37Rv. inhibition, % at 25 µM. M. tuberculosis H37Rv growth with meropenem, percent inhibition; hits of this screen are not shown here. actives 0.27% (n = 330,000);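 active means about 74% or more and at least 40 points above the plate without the antibiotic, then above 30% in a dose series; inconclusive means first-round hits that could not be retested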;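 further: growth measured after seven days incubation then overnight dye step; 0% = bacteria only wells and 100% = bacteria with antibiotic; twin plates without the antibiotic show which effects depend on it; some results filed as inactive read as strong as hits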
# Arbovirus anti repeat: further read-out of Arbovirus anti, marked with its call; inhibition, %; measured here: 10K subset replicate screen; many hits read low in the repeat;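 first of two repeat runs on a subset; 0% = infected and 100% = uninfected wells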
# Active calls of the source: *; ? = inconclusive; / = no result given; & = joins results of further samples. This is a subset, so the mix of outcomes need not match the whole.
SMILES,Arbovirus anti,YopH PTP inh,RecA intein inh,Mtb H37Rv,Mtb betalactam,others
CCOc1ccc(NC(=O)C2CCC(N3C(=O)C4CC=CCC4C3=O)CC2)cc1 (centres undefined),2,-35,-5.3,1%,22,
CC(C)c1nnc(NC(=O)c2ccc3c(c2)OCO3)s1,4,/,-1.1,-1%,2,
O=C(O)CCC(=O)NC(c1ccccc1)c1ccccc1,2,/,-1.6,-6%,-2,
C#CCSc1nc(-c2ccccc2)cc(C(F)(F)F)c1C#N,-2,-1,-6.6,-2%,1,
COc1ccc(OCC(O)Cn2c(Nc3ccccc3)nc3c2c(=O)n(C)c(=O)n3C)cc1 (centres undefined),2,-25,-2.6,5%,3,
CS(=O)(=O)N(Cc1ccc(Cl)cc1)c1ccc(C(=O)N/N=C/c2cc3ccccc3nc2Cl)cc1,-5,-12,-1.7,-6%,0,
CCOC(=O)c1ccc(NC(=O)N2CCCCCC2)cc1,/,/,-0.5,/,0,
O=C(Nc1csc([N+](=O)[O-])c1)Nc1c(Cl)cccc1Cl,/,/,-1.6,0%,-3,
COc1ccccc1NC(=O)c1ccccc1N(Cc1ccccc1)S(C)(=O)=O,/,/,-3.2,/,-6,
CCS(=O)(=O)c1nc(S(=O)(=O)c2ccc(C)cc2)c(N2CCN(C)CC2)s1,/,/,-2.4,/,1,
CCOC(=O)CSc1ccc2nnc(CCNS(=O)(=O)c3ccccc3)n2n1,5,/,-1.3,-5%,0,
CSc1nnc(NC(=O)CCc2ccccc2)s1,0,14,-1.0,-1%,0,
CS(=O)(=O)N1CCN(c2ccc([N+](=O)[O-])c(N3CCOCC3)c2)CC1,3,-19,1.5,/,0,
COC(=O)c1sc(S(=O)(=O)N2CCC(C(N)=O)CC2)c(C(=O)OC)c1C,2,-28,-1.8,4%,-7,
COc1cc2c(cc1NC(=O)c1ccccc1F)CCCC2,12,-27,9.6,14%,6,
O=C(O)C1(Cc2nc3ccccc3[nH]2)CCCC1,/,/,0.4,/,5,
NC(=O)c1c(NC(=O)c2ccccc2F)sc2c1CCCC2,/,/,-20,/,30,
Cc1cc2c(c(Sc3ccccc3)n1)C(=O)OC2,2,-18,-0.4,-4%,2,
O=C(NCc1ccco1)c1c[nH]c2ccc(S(=O)(=O)N3CCOCC3)cc2c1=O,11,-13,/,-1%,/,
C[C@@H](O)C1NC(=O)[C@H](CCCCN)NC(=O)c2cc([N+](=O)[O-])cc(I)c2NCCC[C@@H](C(N)=O)NC1=O (some centres undefined),1,-13,2.0,8%,2,
C=CCn1c(SCC(=O)Nc2cc(C)on2)nc2sc(C)c(C)c2c1=O,1,-7,-1.1,/,27,
CC1=CC(=O)C=CC1(C)C(Cl)Cl (centres undefined),4,-31,-0.2,5%,-3,
COc1ccc(C)c(-n2c(N)cc(=O)n(Cc3ccccc3)c2=O)c1,/,/,0.5,-1%,5,
COc1cc(C(=O)Nc2nc(OC)c(-c3ccccc3)c(OC)n2)cc(OC)c1OC,-11,-32,0.8,-2%,-3,
O=C(NCc1ccco1)C1CCCCN1S(=O)(=O)c1ccc(F)cc1 (centres undefined),9,-7,1.5,-3%,-7,
# More structures follow.
SMILES,Arbovirus anti,YopH PTP inh,RecA intein inh,Mtb H37Rv,Mtb betalactam,others
O=C(NC1CONC1=O)OCC(Cl)(Cl)Cl (centres undefined),2,-28,-3.5,-3%,-5,
CCCN(C(=O)c1cn(C)c(=O)c2ccccc12)c1ccccc1C,/,/,1.0,/,-2,
O=C(NC(C(=O)N/N=C/c1cc([N+](=O)[O-])ccc1O)c1n[nH]c(=O)c2ccccc12)c1ccccc1 (centres undefined),/,/,7.3,/,6,
N#Cc1c(NC(=O)c2ccc(Cn3cc(Br)cn3)o2)sc2c1CCCCCC2,-10,41,6.9,60%,66,
COc1ccc(C(=O)COC(=O)c2cc([N+](=O)[O-])ccc2N2CCOCC2)c(OC)c1,/,/,-0.1,/,-8,
CCOC(=O)C1=C(C)N(CCC(=O)O)C(=O)NC1c1ccccc1Cl (centres undefined),/,/,-4.4,-11%,-1,
COC(=O)CSC(C(=O)Nc1ccc(C)c(C)c1)c1ccccc1 (centres undefined),7,-36,1.6,2%,11,
Cc1ccc2c(c1)C(=O)C(=O)N2CC(=O)Nc1ccccc1NC(=O)c1ccccn1,/,/,0.5,-10%,-9,
COCCN(CC(=O)Nc1cccc(C)c1)S(=O)(=O)c1ccc(S(=O)(=O)N2CCCC2)cc1,-10,-19,-0.7,2%,-3,
O=C(CSc1nnc(NC(=O)C2CC2)s1)NCc1ccco1,6,-10,1.1,-1%,0,
N/C(=N\NC(=O)c1cccs1)c1cc2cc(Cl)ccc2oc1=O,/,/,4.1,-3%,-4,
CC(=O)Nc1nc(SCc2cccc3ccccc23)n[nH]1,2,-29,-2.0,-3%,-5,
COc1ccc(-c2cc(C(=O)Nc3c(C)n(C)n(-c4ccccc4)c3=O)no2)cc1,0,/,0.9,20%,72,
Nc1nnc(CCOc2ccc(Cl)cc2)s1,0,-10,-1.9,1%,-1,
Cc1cc(C)c2c(c1)C(=O)/C(=C/c1ccc(C(=O)O)cc1)CC2,/,/,18,/,-6,
COc1cc(O)c(C(CCN2CCCC(C)C2)c2ccc3c(c2)OCO3)c(OC)c1 (centres undefined),/,/,-0.4,0%,-4,
Cc1cc(NC(=O)CSc2nc(C3CC3)nc3sc(C)c(C)c23)no1,-23,-62,-1.7,6%,4,
CC(C)CC(NC(=O)C1CCCCC1)C(=O)N1CCN(c2ccccn2)CC1 (centres undefined),-13,-16,0.8,-7%,?,
CC(C)CNc1nc(Oc2ccc(=O)[nH]n2)nc(N2CCOCC2)n1,-2,/,-2.0,5%,2,
CCn1c(=S)[nH]c2cc(C(=O)O)ccc21,0,/,1.7,-1%,5,
COC(=O)Cn1cc([N+](=O)[O-])nc1C,1,/,-2.6,2%,-6,
CCOc1cc(/C=C2\C(=O)N(c3cccc(C(=O)O)c3)N=C2C(F)(F)F)ccc1OCC(=O)Nc1ccccc1OC,/,/,33*,/,-2,
CCn1c2ccccc2c2cc(NC(=O)COC(=O)c3ccccc3F)ccc21,-3,-8,0.9,-3%,1,
CC1Cc2ccccc2N1C(=O)CSc1nc2ccccc2s1 (centres undefined),-5,-25,9.7,/,5,
CCCC(=O)Nc1ccc(C2C(=O)c3ccccc3C2=O)cc1,/,/,1.3,/,0,
# The listing continues:
SMILES,Arbovirus anti,YopH PTP inh,RecA intein inh,Mtb H37Rv,Mtb betalactam,others
COc1ccccc1NC(=O)c1cn(CCC#N)nc1-c1cccc(Cl)c1,/,/,-1.6,/,0,
CCOc1ccc(OCCN2CCCCC2)cc1,0,-38,0.8,-4%,-4,
CCOC(=O)[C@@H]1[C@H]2COc3cc(OC)ccc3[C@@H]2N2C(=O)N(c3cccc(Cl)c3)C(=O)[C@]12C,/,/,0.5,/,-3,
O=c1[nH]c(SCc2ccccc2Cl)nc2c1cnn2-c1ccccc1,-12,-33,-4.1,9%,-8,
CCOC(=O)Cn1c(=O)oc2cc(S(=O)(=O)N(C)c3ccc(OC)cc3)ccc21,/,/,0.1,5%,-10,
CCOCCCn1c(SCC(=O)Nc2cccc(S(=O)(=O)NC3=NCCCCC3)c2)nc2ccccc2c1=O,/,/,-0.1,5%,-7,
O=c1c(-c2ccc(O)cc2O)coc2cc(O)cc(O)c12,3,/,-4.7,1%,-3,
CC(Cc1cccs1)NCc1ccc(Cl)cc1 (centres undefined),9,/,0.7,4%,-7,
CC(/C=C/c1ccccc1)=N/NC(=O)CNC(=O)c1ccccc1F,-7,/,-0.9,0%,-6,
Cc1ccc(NC(=O)c2ccc([N+](=O)[O-])o2)cc1C,-19,/,3.6,<0.2µM*,100,
O=C(COc1ccc(Cl)cc1Cl)N/N=C/c1cccnc1,/,/,-2.4,/,-3,
O=C(Nc1ccncc1)c1ccc(C(=O)Nc2ccncc2)cc1,22,/,-1.7,-1%,2,
c1ccc(Nc2c3c(nc4ccccc24)CCC3)cc1,-24,/,-2.4,3%,-4,
CCOC(=O)c1c(NC(=O)COC(=O)c2cnc(C)cn2)sc(C(=O)N(C)C)c1C,/,/,-1.1,/,0,
Cc1c(C(=O)Nc2nonc2-c2ccc(F)cc2)oc2ccc(F)cc12,/,/,-0.6,/,28,
Cc1coc2c(C)c3oc(=O)c(CCC(=O)NCc4ccccn4)c(C)c3cc12,/,/,6.0,/,-7,
COc1ccc(NC(=O)C(F)(OC)C(F)(F)F)c(OC)c1 (centres undefined),4,-13,1.8,0%,-1,
C=CCCCN(Cc1ccccc1)S(=O)(=O)c1ccccc1Br,/,/,15,-11%,-7,
CCc1nnc(NC(=O)CSc2nc(C)cs2)s1,/,/,-1.1,/,-3,
O=C(NCCS(=O)(=O)N1CCN(c2ccccc2)CC1)C1CC(=O)N(c2ccccc2)C1 (centres undefined),/,/,0.0,/,-6,
CC1=C(C(=O)N2CCOCC2)C(c2cc(C)ccc2C)NC(=S)N1 (centres undefined),1,/,1.4,/,2,
CCNC(=O)NC(=O)COC(=O)CCCSc1nc2ccccc2s1,4,-29,1.4,1%,-5,
C=CCOC(=O)C1=C[C@H](c2cn(C(C)=O)c3ccccc23)C[C@H](OCCCCO)O1,0,/,0.7,2%,-3,
O=C1NCCN1Cc1cccc(Cl)c1,-1,-31,-1.2,1%,-3,
C[N+]1(C)[C@@H]2CC[C@H]1CC(OC(=O)C(CO)c1ccccc1)C2 (some centres undefined),1,-33,-1.8&4.7,/,-1,

# Five entries drawn at random from the list so far:
SMILES,Arbovirus anti,YopH PTP inh,RecA intein inh,Mtb H37Rv,Mtb betalactam,others
C=CCn1c(SCC(=O)Nc2cc(C)on2)nc2sc(C)c(C)c2c1=O,1,-7,-1.1,/,27,
c1ccc(Nc2c3c(nc4ccccc24)CCC3)cc1,-24,/,-2.4,3%,-4,
CCCN(C(=O)c1cn(C)c(=O)c2ccccc12)c1ccccc1C,/,/,1.0,/,-2,
COc1ccc(C(=O)COC(=O)c2cc([N+](=O)[O-])ccc2N2CCOCC2)c(OC)c1,/,/,-0.1,/,-8,
O=c1[nH]c(SCc2ccccc2Cl)nc2c1cnn2-c1ccccc1,-12,-33,-4.1,9%,-8,

# Additional compounds
SMILES,Arbovirus anti,YopH PTP inh,RecA intein inh,Mtb H37Rv,Mtb betalactam,others
CCN(CC)c1ccc(/C=N/NC(=O)c2cccc(S(=O)(=O)N3CCOCC3)c2)c(O)c1,-21,/,-1.2,12%,2,
CN1C=CC=C/C1=C1/SC(=S)N(Cc2ccccc2)C1=O,3,-18,-5.0,2%,9,
CCN(CC)S(=O)(=O)c1ccc2c(c1)N(CC(=O)NCC1CCCO1)C(=O)CO2 (centres undefined),/,/,0.4,/,2,
CC1CC(OP(O)(=S)c2ccc(N(C)C)cc2NC(=O)c2cccs2)CC(C)(C)C1 (centres undefined),3,/,5.5,-3%,-1,
CC(=O)c1ccc(NC(=O)C2CCCN(C(=O)c3ccc(Cl)cc3)C2)cc1 (centres undefined),4,/,-1.8,-1%,-4,
COc1cc(S(=O)(=O)N2CCN(C(=O)c3ccccc3F)CC2)c(OC)cc1NC(C)=O,7,-32,0.7,-7%,/,
Cc1ccc2[nH]c(O)c(N=O)c2c1,/,/,1.0,3%,-1,
COc1ccccc1N1CCN(Cc2ccc(OC)c3ccccc23)CC1,32*,-25,3.8,-3%,-7,
O=S(=O)(c1ccc(Cl)cc1)c1ccccn1,3,-27,0.8,2%,7,
C=CCOC(=O)C1=C(C)NC(C)=C(C(=O)OCC=C)C1c1ccc(O)cc1,7,/,2.2,0%,9,Arbovirus anti repeat=-2
CC(C)(C)OC(=O)CNC(=O)c1[nH]cnc1C(=O)NC1CCN(C(=O)OC(C)(C)C)CC1,/,/,-0.9,/,1,
COc1cc(Cl)c(NS(=O)(=O)c2ccc(-c3ccc(=O)[nH]n3)o2)c(OC)c1,/,/,-1.7,/,-3,
CN(C(=O)COC(=O)C1CCN(S(=O)(=O)c2c(Cl)cccc2Cl)CC1)C1CCCCC1,/,/,2.1,/,0,
O=C(CSc1n[nH]c(-c2ccco2)n1)N1c2ccccc2Sc2ccccc21,-4,-13,1.1,-7%,62,
COc1ccccc1NC(=O)Cn1c2ccccc2c2nc3n(c(=O)c21)CCS3,-3,/,-0.7,5%,2,
CCc1ccc(C(O)(CC(C)C)C(CN2CCOCC2)c2ccccc2)cc1 (centres undefined),/,/,14,/,0,
O=C1N/C(=N\N=C\c2ccccn2)SC1Cc1cccc(SC(F)F)c1 (centres undefined),-27,-33,2.1,72%,99,
CCn1cc(/C=C(\NC(=O)c2ccccc2F)C(=O)NCCN2CCOCC2)c2ccccc21,/,/,1.8,/,-4,
